NPYLR7 ag – mosquito NPYLR7 agonism | HEK293T NPYLR7/Galpha15, GCaMP6s calcium fluorescence | activation, % at 10 µM | 270,000 compounds, 0.15% hits | AID 1259423; in the data active = activation above about 40%;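 note: 0% = vehicle and 100% = reference agonist at the receptor; some compounds past the cut are filed as inactive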
NPYLR7 ag max-min – further read-out of NPYLR7 ag, marked with its call; activation, %; measured here: Max-Min RFU normalised activation; some inactives read as strong as hits;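 span of the calcium signal over five minutes; 0% = vehicle and 100% = native peptide agonist; compound fluorescence can raise it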
Starred values were filed as active, the others as inactive.

Screening CC(C)OCCCN1CC(C(=O)O)CC1=O (centres undefined) returned NPYLR7 ag 8.8 and NPYLR7 ag max-min 7.6.
For Cc1cccc(-n2nc3c(c2NC(=O)C2CC(=O)N(c4ccccc4)C2)CS(=O)(=O)C3)c1 (centres undefined) the results were NPYLR7 ag -2.0 and NPYLR7 ag max-min -3.9.
Screening O=C(Cn1cc(C(F)(F)F)ccc1=O)OCC(=O)c1ccc[nH]1 returned NPYLR7 ag 2.7 and NPYLR7 ag max-min -6.4.
`CNc1nc2cnc(Nc3ccc4c(c3)OCO4)cc2n1-c1cccc(C(F)(F)F)c1` gave NPYLR7 ag -10.9 and NPYLR7 ag max-min -13.6.
`CC(CN(C)c1ccccc1)Nc1cc(=O)n2ccccc2n1` (centres undefined) gave NPYLR7 ag 6.1 and NPYLR7 ag max-min 4.4.
CC(NC(=O)c1cc(Cl)c(Cl)n1C)c1nnc2n1CCC2 (centres undefined) was read as NPYLR7 ag -0.4 and NPYLR7 ag max-min -1.7.
`Cc1cc(=O)[nH]c(-n2nc(-c3cccs3)cc2NC(=O)c2ccccc2C(F)(F)F)n1` gave NPYLR7 ag 0.3 and NPYLR7 ag max-min -0.3.
For O=C1NC(=S)NC(=O)C1=Cc1ccc(N2CCOCC2)o1 the results were NPYLR7 ag 1.8 and NPYLR7 ag max-min -0.5.
For Cc1nn(CN(C)Cc2nc3ccccc3s2)c(=S)n1C1CC1 the results were NPYLR7 ag 5.8 and NPYLR7 ag max-min 0.1.
`O=C1C(=Cc2cccnc2)SC(=S)N1CC1CCCO1` (centres undefined) gave NPYLR7 ag 5.0 and NPYLR7 ag max-min 6.4.
For COCCN1CCCC[C@]2(C[C@H](CO)[C@H](c3ccccc3)N2C(=O)c2cccs2)C1=O the results were NPYLR7 ag 2.8 and NPYLR7 ag max-min 3.1.
Cc1ccc(-c2n[nH]c(C)c2NC(=O)NC(C)C)c(C)c1 was read as NPYLR7 ag 12.2 and NPYLR7 ag max-min 3.3.
For CCC(C(=O)N1CCC2(CC1)C(=O)N(CC(=O)NCc1ccccc1)CN2c1ccccc1)c1ccccc1 (centres undefined) the results were NPYLR7 ag 5.9 and NPYLR7 ag max-min 13.7.
CC(=O)Cn1c(=O)c2c(nc3n(-c4ccc(Oc5ccccc5)cc4)c(C)cn23)n(C)c1=O was read as NPYLR7 ag 9.6 and NPYLR7 ag max-min 8.2.
Screening CCOc1ccccc1C(=O)NC(C(=O)N1CCCSc2ccccc21)C(C)C (centres undefined) returned NPYLR7 ag 1.1 and NPYLR7 ag max-min 0.0.
`COC(=O)C(C)Oc1cc(OC(C)C(=O)OC)c2c(C)c(Cl)c(=O)oc2c1` (centres undefined) gave NPYLR7 ag 3.4 and NPYLR7 ag max-min 1.2.
CCCc1cc(=O)oc2cc(OCC(=O)NC3CCCC3)ccc12 was read as NPYLR7 ag 9.5 and NPYLR7 ag max-min 1.8.
`CNC(=O)NC(=O)C(C)Sc1nc2sc3c(c2c(=O)n1-c1cccc(C)c1)CCCC3` (centres undefined) gave NPYLR7 ag 1.2 and NPYLR7 ag max-min 7.0.
`CCOC(=O)CCC(=O)Nc1nnc(SCc2cccc(Cl)c2F)s1` gave NPYLR7 ag 11.5 and NPYLR7 ag max-min 18.8.
Cc1ccccc1C(C)NC(=O)c1ccccc1N(C)C(=O)C1CC1 (centres undefined) was read as NPYLR7 ag 3.3 and NPYLR7 ag max-min 5.5.
Screening COc1nc(N(C)C)nc(-n2nnc(C(C)=O)c2C)n1 returned NPYLR7 ag -1.2 and NPYLR7 ag max-min -3.1.
Screening O=C(NC1CCN(c2ccccc2C(=O)NCc2ccc3c(c2)OCO3)CC1)c1ccc(Cl)cc1Cl returned NPYLR7 ag -14.8 and NPYLR7 ag max-min -14.3.
Oc1ccc2c(c1)[nH]c1ccccc12 was read as NPYLR7 ag -3.0 and NPYLR7 ag max-min 4.8.
`COc1ccc(/C=C2\C=C(c3ccccc3)N(c3cccc(Cl)c3Cl)C2=O)cc1Br` gave NPYLR7 ag -0.8 and NPYLR7 ag max-min 5.0.
`COC(=O)C(CO)NC(=O)c1cccnc1Nc1cccc(C(F)(F)F)c1` (centres undefined) gave NPYLR7 ag 2.8 and NPYLR7 ag max-min 3.9.
Screening Cc1cccc(-c2nc(C)c(C(C)C)c(N3CCN(C(=O)NCc4ccccc4)CC3)n2)c1 returned NPYLR7 ag 4.2 and NPYLR7 ag max-min 5.4.
For CC1(Cc2ccc(Cl)c(Cl)c2)C(=O)Nc2c(Cl)ccc(Cl)c21 (centres undefined) the results were NPYLR7 ag -4.7 and NPYLR7 ag max-min -0.6.
Screening Cc1ccccc1N1CCN(C(=O)Cc2c[nH]c(=O)[nH]c2=O)C(C)C1 (centres undefined) returned NPYLR7 ag 8.3 and NPYLR7 ag max-min 6.1.
Screening COc1ccccc1-c1onc(C)c1C(=O)NCCSCc1ccco1 returned NPYLR7 ag -1.6 and NPYLR7 ag max-min 8.7.
Cc1cc(I)ccc1S(=O)(=O)NCCCN1CCOCC1 was read as NPYLR7 ag 2.7 and NPYLR7 ag max-min 0.5.
Screening COc1cccc(Cn2c(C(=O)N3CCN(C(=O)C(C)Cl)C(C)C3)cc3ccsc32)c1 (centres undefined) returned NPYLR7 ag -0.9 and NPYLR7 ag max-min 0.8.
For COc1ccccc1NC(=O)N(CC(=O)N(Cc1ccc2c(c1)OCO2)Cc1ccco1)C(C)C the results were NPYLR7 ag -5.2 and NPYLR7 ag max-min -1.9.
Screening Cc1ccc(C(=O)N2CCCc3cc(F)ccc32)cc1NS(C)(=O)=O returned NPYLR7 ag 2.7 and NPYLR7 ag max-min 1.7.
Screening O=C(O)c1cc(-c2ccccc2)nn1-c1cccc(Cl)c1 returned NPYLR7 ag 4.3 and NPYLR7 ag max-min 15.1.
CN(CC(=O)NC1CC1)C(=O)CSc1ncccc1Cl was read as NPYLR7 ag 4.4 and NPYLR7 ag max-min 1.7.
For CN(c1ccc(Cl)cc1)S(=O)(=O)c1cc(C(=O)O)ccc1Cl the results were NPYLR7 ag 0.8 and NPYLR7 ag max-min 0.7.
CCc1nnc2c(=O)n(-c3ccc(F)c(F)c3)ccn12 was read as NPYLR7 ag -17.1 and NPYLR7 ag max-min -20.4.
`CC(C)Sc1nnc(CN2CCCC2)n1Cc1ccccc1` gave NPYLR7 ag 0.8 and NPYLR7 ag max-min 9.0.
`COc1ccc(/C=C2\SC(=Nc3cc(C)cc(C)c3)NC2=O)c(OC)c1` gave NPYLR7 ag -7.4 and NPYLR7 ag max-min -14.4.
For CCOC(=O)c1cnc(-c2ccc(C(F)(F)F)cc2)nc1NCc1ccncc1 the results were NPYLR7 ag 1.5 and NPYLR7 ag max-min 4.2.
Screening CS(=O)(=O)c1ccc2nc(NC(=O)c3cnc4ccccc4n3)sc2c1 returned NPYLR7 ag 2.0 and NPYLR7 ag max-min 5.7.
Screening CN1CCN(C(=O)c2c3c(nc4ccccc24)CCN(C(=O)/C=C/c2ccoc2)C3)CC1 returned NPYLR7 ag -0.3 and NPYLR7 ag max-min 3.9.
O=C(NCC1CC2CCC1C2)C(=O)Nc1cccnc1N1CCCC1 (centres undefined) was read as NPYLR7 ag 9.7 and NPYLR7 ag max-min 5.9.
C=CCn1c(SCC(N)=O)nc2c1c(=O)n(C)c(=O)n2C was read as NPYLR7 ag 10.5 and NPYLR7 ag max-min 7.0.
For COC(=O)C1=C(C)NC2=C(C(=O)CCC2)C1c1cc(Br)c(C)s1 (centres undefined) the results were NPYLR7 ag 5.2 and NPYLR7 ag max-min 3.5.
`CCOC(=O)N1CCC(N2CCN(c3cc(N(C)CC)ncn3)CC2)CC1` gave NPYLR7 ag -1.5 and NPYLR7 ag max-min -4.7.
Screening O=C(Cn1c(C2CC2)nc2ccccc21)N1CCCC1c1ccccn1 (centres undefined) returned NPYLR7 ag -4.9 and NPYLR7 ag max-min -3.6.
CCOCCN1CCN(C2c3ccccc3CSc3ccccc32)CC1 (centres undefined) was read as NPYLR7 ag -8.0 and NPYLR7 ag max-min -9.1.
For O=S(=O)(NN=C1CCCc2ccccc21)c1ccc(Br)cc1 the results were NPYLR7 ag -5.6 and NPYLR7 ag max-min -9.5.
`O=C(c1ccc2ncsc2c1)N1CCCC(O)(CO)C1` (centres undefined) gave NPYLR7 ag 3.6 and NPYLR7 ag max-min 1.2.
For CC1CCN(C(=O)NCCc2cccc(C(=O)N(C)C)c2)C1 (centres undefined) the results were NPYLR7 ag 4.1 and NPYLR7 ag max-min 1.4.
For COc1cccc(OCC(O)CNC(=O)c2ccc3oc(C(C)C)nc3c2)c1 (centres undefined) the results were NPYLR7 ag 6.2 and NPYLR7 ag max-min 3.7.
For O=C(c1ccc(-c2cc(-c3cccc4c3OCCO4)[nH]n2)cc1)N1CCC(Cc2ccccc2)CC1 the results were NPYLR7 ag 18.4 and NPYLR7 ag max-min 12.6.
Screening CCCN(CCC)c1c(Cl)c(Cl)nc(C(=O)O)c1Cl returned NPYLR7 ag -0.1 and NPYLR7 ag max-min -2.3.
`Cc1ccc(NC(=O)c2csc(-c3cnccn3)n2)cc1C(F)(F)F` gave NPYLR7 ag 8.6 and NPYLR7 ag max-min 5.9.
Cc1cc(C(F)(F)F)c(C#N)c(SCC(=O)c2ccc([N+](=O)[O-])cc2)n1 was read as NPYLR7 ag -7.0 and NPYLR7 ag max-min -12.7.
Screening CS(=O)(=O)N1CCCN(Cc2cc3n(n2)CCCNC3)CC1 returned NPYLR7 ag 11.4 and NPYLR7 ag max-min 0.5.
Screening COc1ccc(C)cc1NC(=O)Cc1c(C)noc1C returned NPYLR7 ag -14.1 and NPYLR7 ag max-min -20.2.
CCCn1cnnc1CNC(=O)c1cc(NC(C)=O)ccc1Cl was read as NPYLR7 ag 26.2 and NPYLR7 ag max-min 15.2.
Screening CC(C)C(O)CN(Cc1cccn1Cc1ccccc1)CC1CCCCC1 (centres undefined) returned NPYLR7 ag 5.2 and NPYLR7 ag max-min -7.8.

Overlap with the part before: seven compounds, then new ones.
Screening CCCN(CCC)c1c(Cl)c(Cl)nc(C(=O)O)c1Cl returned NPYLR7 ag -0.1 and NPYLR7 ag max-min -2.3.
`Cc1ccc(NC(=O)c2csc(-c3cnccn3)n2)cc1C(F)(F)F` gave NPYLR7 ag 8.6 and NPYLR7 ag max-min 5.9.
Cc1cc(C(F)(F)F)c(C#N)c(SCC(=O)c2ccc([N+](=O)[O-])cc2)n1 was read as NPYLR7 ag -7.0 and NPYLR7 ag max-min -12.7.
Screening CS(=O)(=O)N1CCCN(Cc2cc3n(n2)CCCNC3)CC1 returned NPYLR7 ag 11.4 and NPYLR7 ag max-min 0.5.
Screening COc1ccc(C)cc1NC(=O)Cc1c(C)noc1C returned NPYLR7 ag -14.1 and NPYLR7 ag max-min -20.2.
CCCn1cnnc1CNC(=O)c1cc(NC(C)=O)ccc1Cl was read as NPYLR7 ag 26.2 and NPYLR7 ag max-min 15.2.
Screening CC(C)C(O)CN(Cc1cccn1Cc1ccccc1)CC1CCCCC1 (centres undefined) returned NPYLR7 ag 5.2 and NPYLR7 ag max-min -7.8.
Cc1ccnc(SCc2cc(=O)c(OC(=O)c3ccc(Cl)c([N+](=O)[O-])c3)co2)n1 was read as NPYLR7 ag -12.0 and NPYLR7 ag max-min -11.7.
For COc1cccc(NC(=O)NCCS(=O)(=O)c2c(C)n(C)c3ccccc23)c1OC the results were NPYLR7 ag -0.3 and NPYLR7 ag max-min 11.0.
`Cc1ccc(/C=C/C2=NC(=C\c3ccco3)/C(=O)O2)cc1` gave NPYLR7 ag 0.6 and NPYLR7 ag max-min -2.4.
`CNc1nc(NCc2ccccc2)c2sccc2n1` gave NPYLR7 ag 7.9 and NPYLR7 ag max-min 4.7.
For CC(C)CN(CC(=O)N(Cc1cccn1Cc1ccccc1Cl)C1CCCCC1)C(=O)C(C)C the results were NPYLR7 ag -5.2 and NPYLR7 ag max-min -0.4.
Screening Cc1ccn2c(=O)c(C(=O)NCc3cccnc3)c(O)nc2c1 returned NPYLR7 ag -2.6 and NPYLR7 ag max-min 26.8.
For Cc1cccc(C(=O)Nc2ccc(CS(C)(=O)=O)c(F)c2)c1C the results were NPYLR7 ag -19.1 and NPYLR7 ag max-min -20.2.
Screening COc1cc2c(cc1OC)C(=O)N(C)C(c1ccccc1)N2 (centres undefined) returned NPYLR7 ag -4.7 and NPYLR7 ag max-min -5.1.
Cc1ccccc1OCC1=NN2C(=N)/C(=C/c3ccc(N(C)C)cc3)C(=O)N=C2S1 was read as NPYLR7 ag 0.4 and NPYLR7 ag max-min -1.5.
`Cc1cc[n+]2c3c(cccc13)CCC2` gave NPYLR7 ag 4.1 and NPYLR7 ag max-min 9.1.
Screening COc1ccccc1-c1ccc(/C=C2\N=C(c3ccccc3)OC2=O)o1 returned NPYLR7 ag -6.3 and NPYLR7 ag max-min -10.0.
For Cc1ccc(C(O)=C2C(=O)C(=O)N(CCCN3CCOCC3)C2c2cccc(Br)c2)cc1 (centres undefined) the results were NPYLR7 ag -0.6 and NPYLR7 ag max-min 8.3.
For OC(c1ccccc1)C(O)(C#Cc1ccccc1)C#Cc1ccccc1 (centres undefined) the results were NPYLR7 ag -7.5 and NPYLR7 ag max-min -10.3.
CC(Sc1nncn1-c1ccccc1F)C(=O)NC1(C#N)CCCCC1 (centres undefined) was read as NPYLR7 ag 3.7 and NPYLR7 ag max-min 1.5.
Screening Cc1ccn2c(=O)cc(COC(=O)c3sc4nc(C)cc(C)c4c3N)nc2c1 returned NPYLR7 ag 6.0 and NPYLR7 ag max-min -1.0.
COC(=O)C1=C(SCc2ccccn2)SC(=C2C(=O)CC(c3ccco3)CC2=O)S1 (centres undefined) was read as NPYLR7 ag -1.9 and NPYLR7 ag max-min -6.3.
COc1ccc(CNC(=O)c2ccc(-c3cccc(C(F)(F)F)c3)s2)c(OC)c1 was read as NPYLR7 ag 5.3 and NPYLR7 ag max-min 7.3.
For CC12C(=O)OC(=O)C1(C)C1CCC2O1 (centres undefined) the results were NPYLR7 ag 2.1 and NPYLR7 ag max-min 2.9.
Screening Cc1n[nH]c(C)c1Cc1nnc(SCC(=O)O)n1C1CC1 returned NPYLR7 ag 12.5 and NPYLR7 ag max-min 5.1.

These rows are one share of the data; rates above refer to the full screens.
